Screening results as filed in PubChem BioAssay.
Hsc70 ATP site – Hsc70 inhibitors, probe displacement, primary screen, biochemical, fluorescence polarization (AID 568) | Heat shock cognate 71 kDa protein (Homo sapiens) | Hsc70 fluorescence polarization, probe displacement; higher % means a stronger effect; strong numbers were not always called active | displacement, % at 20 µM; hits with a dose series show IC50 in µM | 83,000 tested, under 10 active;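 active means displacement above 50% without optical interference and an IC50 on retest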;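 further: ATPase domain with a fluorescein-tagged ATP probe; 0% = vehicle and 100% = excess ADP; read after one hour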
MT1-MMP reporter – inhibitors of MT1-MMP promoter transcription, cell-based, luciferase reporter, luminescence (AID 618) | MT1-MMP promoter luciferase reporter cells, luminescence | hit rate 0.62% among 87,000 | calls from a first round at 10 µM; hits with a dose series show EC50 in µM;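 active means over half of the reporter light lost at 10 µM or EC50 under 50 µM; inactive means the rest and hits that failed the dose series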;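 further: actives suppress MT1-MMP promoter-driven transcription so potencies describe inhibitors; HT1080 fibrosarcoma cells; overnight exposure; toxic or luciferase-blocking compounds were not removed from the actives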
WNV protease inh – inhibitors of WNV NS2B-NS3 protease, primary screen, biochemical, fluorogenic substrate | Genome polyprotein (West Nile virus), P06935 | fluorogenic substrate Ex360/Em465; active compounds read low | z-score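 (tested at a level between 10 and 100 µM)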 | hit rate 0.18% among 65,000 | AID 577, 2007;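 active means z-score at -3 or under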;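 further: score is relative to mean and spread of the compound wells of a plate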
Target sequence (P06935 1371-1501 limits assumed): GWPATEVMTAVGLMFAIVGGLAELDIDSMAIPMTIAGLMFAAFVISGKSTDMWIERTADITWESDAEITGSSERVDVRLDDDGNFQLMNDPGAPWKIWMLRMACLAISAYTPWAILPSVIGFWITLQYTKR
Target sequence (P06935 1502-1679 limits assumed): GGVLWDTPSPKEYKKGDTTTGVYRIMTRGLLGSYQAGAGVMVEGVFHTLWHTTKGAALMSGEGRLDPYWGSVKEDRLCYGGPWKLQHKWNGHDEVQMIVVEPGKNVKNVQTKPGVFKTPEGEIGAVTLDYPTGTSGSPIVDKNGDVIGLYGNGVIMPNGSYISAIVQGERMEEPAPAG
* marks the source's active call; other numbers are inactive results; i = inactive; · = not tested or not shown. The list is partial; the hit share may differ from the screen's.

SMILES	Hsc70 ATP site	MT1-MMP reporter	WNV protease inh
Cc1cccc(CCNC(=O)CN(C)S(=O)(=O)c2ccc3c(c2)c(=O)n(C)c(=O)n3C)c1	-1.3%	i	-0.05
CC(=O)C1=C(O)C(=O)N(c2cccnc2)C1c1ccc(Cl)cc1 (stereo unspecified)	2.7%	i	·
CCOC(=O)N1CCN(c2c(N3CCN(c4cccc(C(F)(F)F)c4)CC3)c(=O)c2=O)CC1	5.7%	i	1.33
CCS(=O)(=O)N1CCC(C(=O)NCc2cc(OC)ccc2OC)CC1	-0.3%	i	·
CCN(CC)C(=O)CSc1nnc(SCc2ccc(Cl)cc2)s1	1.3%	i	·
O=C(CCC(=O)c1cccs1)OCC(=O)N1CCN(C(=O)c2ccco2)CC1	-4.2%	i	-0.82
COC(=O)c1cc(-c2ccc(Br)cc2)on1	0.9%	i	-1.48
CC(C)CNS(=O)(=O)c1ccc(S(=O)(=O)N2CCN(CCC#N)CC2)cc1	0.2%	i	-0.4
CN(C)CCNC(=O)C1CCCNC1=O (stereo unspecified)	-0.5%	i	·
O=C1OCCC1Sc1nnc(-c2ccco2)o1 (stereo unspecified)	1.9%	i	0.71
Cn1nnnc1SCC(=O)NCc1ccco1	-3.8%	i	0.03
CCOC(=O)Cn1c(=O)oc2cc(S(=O)(=O)N3CCn4c3nc3ccccc34)ccc21	-0.3%	i	2.57
O=C(CSc1nc2ccccc2[nH]1)Nc1c(F)cccc1F	-1.2%	i	·
Cc1cc2c(c(=O)n1Cc1ccc3c(c1)OCO3)C(c1cccnc1)C(C#N)=C(N)O2 (stereo unspecified)	2.2%	i	0.43
CCCCOc1ccc(OCCCC)c2c1NC1(N2)C(=O)N(C(C)=O)c2ccccc21	-3.3%	i	-1.32
Brc1ccc(Nc2nc3ccccc3n3nnnc23)cc1	0.1%	i	·
COc1ccccc1NS(=O)(=O)c1ccc(Br)s1	-7.1%	i	0.37
O=C(CCC(=O)c1cccs1)c1cccs1	-0.2%	i	·
Cc1ccc(C(c2sc3nc(C)nn3c2O)N2CCN(CCO)CC2)cc1 (stereo unspecified)	8.0%	i	-0.83
Cn1c(SCC(=O)c2ccc3c(c2)OCCO3)nnc1C1CC1	6.0%	i	·

Full records as entered above. Order of screens: Hsc70 ATP site, MT1-MMP reporter, WNV protease inh
Listed for `CCOC(=O)N1CCN(c2c(N3CCN(c4cccc(C(F)(F)F)c4)CC3)c(=O)c2=O)CC1` → 5.7%, i, 1.33
Listed for `Cc1ccc(C(c2sc3nc(C)nn3c2O)N2CCN(CCO)CC2)cc1` (stereo unspecified) → 8.0%, i, -0.83
Listed for `CCOC(=O)Cn1c(=O)oc2cc(S(=O)(=O)N3CCn4c3nc3ccccc34)ccc21` → -0.3%, i, 2.57

Next structures follow.
SMILES	Hsc70 ATP site	MT1-MMP reporter	WNV protease inh
COc1ccc(OC)c2[nH]c(=O)c(CCNC(=O)C(C)(C)C)cc12	2.8%	i	-0.68
CCOC(=O)c1c(C)[nH]c(N=Nc2ccc(C)cc2)c1C	1.7%	i	·
CCOC(=O)c1c(C)c(C(=O)Nc2cc(F)ccc2F)c(C)n1C	4.8%	i	-0.67
CCOc1ccc(OCC)c(NC(=O)CN2CCN(C(=O)c3ccco3)CC2)c1	-1.1%	i	0.5
Cc1ccnc(NC(=O)C2CCN(S(=O)(=O)c3cccc4nonc34)CC2)c1	2.0%	i	1.05
CCc1c(C(C)O)oc2ccc3c(C)cc(=O)oc3c12 (stereo unspecified)	0.9%	i	-0.7
CC(C)c1nnc(NC(=O)CCN2C(=O)c3ccccc3C2=O)s1	4.3%	i	-0.37
COc1ccccc1N1CCN(c2cc(N3CCCC3)nc(C)n2)CC1	0.4%	i	-0.33
CCc1nnc2sc(-c3ccc(NC(=O)c4ccco4)cc3)nn12	-7.9%	i	1.36
CC(C)OC(=O)c1c(N)sc2c1CCCC2	-0.5%	i	-0.07
CCSC1=C(C#N)C(c2cccc(Br)c2)CC(=O)N1 (stereo unspecified)	-0.9%	i	-0.58
CN(C)c1ccc(-n2cc3c(=O)n(C)c(=O)n(C)c3c2)cc1	-2.6%	i	-0.17
O=C(Cn1nc(-c2ccccc2)ccc1=O)NCC1CCCO1 (stereo unspecified)	7.6%	i	·
CCOc1ccc(CN(Cc2ccco2)C(c2cccs2)c2nnnn2C(C)(C)C)cc1 (stereo unspecified)	3.1%	i	-0.79
Cc1ccc2occ(CN3CCN(c4ccccc4)CC3)c(=O)c2c1	2.6%	i	-0.11
COc1ccc(-c2nnc(-c3cccs3)o2)cc1OC	3.2%	i	0.18
CCOC(=O)c1c(C)n(C)c2ccc(OC(C)C(=O)OC)cc12 (stereo unspecified)	-1.3%	i	-0.25
CCCCC(=O)Nc1ccc2c(c1)oc1ccccc12	1.7%	i	·
CC(CCc1ccccc1)NC(=O)c1ccc(C(=O)NC(C)CCc2ccccc2)cc1 (stereo unspecified)	-1.3%	i	·
COC(=O)c1ccc(/C(O)=C(\C#N)c2nc3ccccc3s2)cc1	-10.0%	i	1.08

Copied from the list.
Hsc70 ATP site with Cc1ccnc(NC(=O)C2CCN(S(=O)(=O)c3cccc4nonc34)CC2)c1 is entered as 2.0%
WNV protease inh with COc1ccccc1N1CCN(c2cc(N3CCCC3)nc(C)n2)CC1 is entered as -0.33
Hsc70 ATP site with CCOc1ccc(OCC)c(NC(=O)CN2CCN(C(=O)c3ccco3)CC2)c1 is entered as -1.1%

More entries.
SMILES	Hsc70 ATP site	MT1-MMP reporter	WNV protease inh
COc1ccc(OC)c(C2CC(=O)NC(SC)=C2C#N)c1 (stereo unspecified)	2.2%	i	0.65
CCC(=O)Nc1ccc(S(=O)(=O)N2CCN(c3ccc(F)cc3)CC2)cc1	4.1%	i	·
Cc1c(C2(c3c(C)n(C)n(-c4ccccc4)c3=O)C(=O)Nc3ccc(F)cc32)c(=O)n(-c2ccccc2)n1C	-2.6%	i	·
Cc1ccccc1NC(=O)Cn1c(C)nc2ccc(NC(=O)C3CC3)cc2c1=O	2.9%	i	1.9
CC(C)N(C(=O)Cn1cnc2c(cnn2-c2ccccc2Cl)c1=O)C(C)C	3.8%	i	0.02
COc1ccccc1NC1C=CS(=O)(=O)C1 (stereo unspecified)	-14.3%	i	0.2
Cc1cc(N)n2nc(C)c(-c3ccccc3)c2n1	0.2%	i	·
COc1ccc(-n2cnnc2SCC(=O)NC2CCS(=O)(=O)C2)cc1 (stereo unspecified)	-3.2%	i	·
COc1cc(NC(=O)c2ccccc2)cc(OC)c1	3.1%	i	-0.55
O=C(CCC(=O)N1CCc2ccccc2C1)N1CCN(S(=O)(=O)c2ccccc2)CC1	1.2%	i	0.5
O=C(Oc1cccc2ccccc12)c1ccco1	-1.4%	i	-0.54
CCn1c(SCc2nc3ccccc3s2)nnc1-c1ccccc1	-2.4%	i	·
c1ccn2c(Cc3nnc4ccccn34)nnc2c1	-0.8%	i	-0.07
Cc1ccc(N2CC(C(=O)N3CCc4ccccc43)CC2=O)cc1 (stereo unspecified)	-5.5%	i	-0.26
CC(=O)N=c1cccc(NC(C)=O)n1O	0.9%	i	0.26
CCOc1ccc(N(CC(=O)NCC2CCCO2)S(=O)(=O)c2ccc(SC)cc2)cc1 (stereo unspecified)	5.4%	i	·
O=C1CSC(c2ccccn2)N1c1cccc(Cl)c1 (stereo unspecified)	0.7%	i	1.35
O=C(/C=C/c1ccco1)NC(=S)NNC(=O)c1ccco1	-1.6%	i	·
COc1cccc(-n2nnc3c(=O)n(CC(=O)NC4CCCC4)cnc32)c1	-4.4%	i	0.19
Cc1ccccc1NC(=O)CCN1CCN(C/C=C/c2ccccc2)CC1	4.4%	i	-0.2
CSc1nc2ccccc2n1C(=O)NC1CCCCC1	-2.6%	i	-0.15
O=C(c1ccccn1)N1CCN(c2ccc(C(F)(F)F)cn2)CC1	13.8%	i	-1.07
N#C/C(=C\c1ccco1)Sc1nc2ccccc2s1	2.1%	i	-1.43
O=C(C1CCCN(S(=O)(=O)c2ccccc2)C1)N1CCN(c2ncccn2)CC1 (stereo unspecified)	-3.7%	i	-0.92
COC(=O)c1ccccc1NC(=O)N1CCN(C(=O)c2ccco2)CC1	2.2%	i	0.53
CCN(CCO)C1CC(=O)N(c2ccccc2C)C1=O (stereo unspecified)	1.9%	i	0.52
CN(C)S(=O)(=O)c1cccc(-c2nnc(SCc3ccc4c(c3)OCCO4)o2)c1	4.0%	i	-0.88
CC1CCCN(C(=O)C2CCN(CC3CC=CCC3)CC2)C1 (stereo unspecified)	-0.4%	i	1.47
CC(C)(C)n1nnnc1C(c1cccs1)N1CCCC2(CCCCC2)C1 (stereo unspecified)	5.7%	i	-1.85
CCc1nnc(-n2nc(C)cc2-c2ccccc2)n1N	-5.0%	i	-1.37
COc1nnc(-c2ccc(N3CCCCC3)c(N)c2)c2ccccc12	-8.3%	i	-0.83
COc1cccc(-c2nc3n(n2)C(c2ccccc2Cl)C(C(N)=O)=C(C)N3)c1 (stereo unspecified)	1.6%	i	-0.02
CC1Cc2ccccc2N1C(=O)CSC1=NCCS1 (stereo unspecified)	-4.6%	i	2.08
CC(C)Oc1ccc(NC(=O)C2CCCNC2=O)cc1 (stereo unspecified)	3.8%	i	-1
CCc1ccc2[nH]c(=O)c(CN(Cc3ccc(OC)cc3)Cc3nnnn3CCOC)cc2c1	3.1%	i	0.24
CCCOC(=O)C1=C(C)NC2=C(C(=O)C(C(=O)OC)C(C)C2)C1c1ccc(N(C)C)cc1 (stereo unspecified)	2.6%	i	-1.39
CCCCn1c(-c2ccsc2)nc2c1c(=O)[nH]c(=O)n2CCC	9.7%	i	0.38
Cc1cccc(C)c1NC(=O)CSc1nc2ccccc2c(=O)[nH]1	-1.3%	i	·
Cc1nn(Cc2ccc(Cl)cc2)c2sc(C(=O)OCC(N)=O)cc12	3.6%	i	·
CC(=O)c1ccc(NC(=O)C2CCCNC2=O)cc1 (stereo unspecified)	-2.0%	i	-0.54
COC(=O)c1ccc(NS(=O)(=O)c2ccc(OC)cc2)cc1	7.9%	i	0.76
Nc1sccc1C(=O)c1ccc(Cl)cc1	2.4%	i	-0.17
CCOC(=O)C1CSc2[nH]c(=O)sc2C1c1ccccc1 (stereo unspecified)	17.5%	i	0.66
COC(=O)c1cc(Br)c(=O)n(Cc2cccnc2)c1	3.3%	i	-0.09
Cn1c(=O)c2cn(-c3ccc4c(c3)OCCO4)cc2n(C)c1=O	-5.5%	i	-0.55
Brc1ccc(NC2=Nc3ccccc3CC2)cc1	-0.2%	i	·
Cc1nc(C)c(C(=O)NCc2ccccc2Cl)o1	0.3%	i	-0.07
Cc1nnc2sc(-c3ccc(NC(=O)c4ccc(-c5ccc(Cl)cc5Cl)o4)cc3)nn12	-157.6%	i	-1.47
COc1ccc(C(C)=O)c(OC(=O)c2ccc(OC)c(OC)c2)c1	2.9%	i	-0.82
O=C(c1cccc(N2C(=O)C3CC=CCC3C2=O)c1)N1CCN(c2ccccc2)CC1 (stereo unspecified)	1.2%	i	-0.21
CCn1c(CC(=O)Nc2ccccc2F)nnc1SCC(=O)N1CCN(c2ccccc2)CC1	-0.8%	i	-0.27
CCOC(=O)c1ccc(NC(=O)Nc2ccc3c(c2)OCCO3)cc1	-1.6%	i	-0.71
CCn1cc(C(=O)N2CC(C)CC(C)C2)c(=O)c2cc(S(=O)(=O)N3CCOCC3)ccc21 (stereo unspecified)	-5.0%	i	-0.2
Cn1nnc2c(NCc3ccco3)nccc21	5.6%	i	-0.39
CC(C)CC(C(=O)Nc1oc(-c2ccccc2)c(-c2ccccc2)c1C#N)N1C(=O)c2ccccc2C1=O (stereo unspecified)	-4.0%	i	·
CC(NCc1ccccc1)C1COc2ccccc2O1 (stereo unspecified)	-1.3%	i	·
O=S(=O)(c1ccc(F)cc1)N1CCN(Cc2ccccc2C(F)(F)F)CC1	3.7%	i	0.05
Cn1c(NC(=O)c2ccco2)c(-c2ccc(Cl)cc2)c(=O)c2ccccc21	-0.3%	i	·
O=C(c1ccsc1)N1CCN(C(=O)c2cccs2)CC1	38.6%	i	-0.94
COc1ccccc1NC(=O)c1ccc(CN2CCOCC2)cc1	4.2%	i	0.51

Some of the entries so far, as labelled records.
> CCn1c(CC(=O)Nc2ccccc2F)nnc1SCC(=O)N1CCN(c2ccccc2)CC1
  Hsc70 ATP site: -0.8% | MT1-MMP reporter: i | WNV protease inh: -0.27
> CCOC(=O)c1ccc(NC(=O)Nc2ccc3c(c2)OCCO3)cc1
  Hsc70 ATP site: -1.6% | MT1-MMP reporter: i | WNV protease inh: -0.71

Continued:
SMILES	Hsc70 ATP site	MT1-MMP reporter	WNV protease inh
CCn1c(C(=O)N2CCCC(C(=O)NCCCc3ccccc3)C2)cc2sccc21 (stereo unspecified)	-1.8%	i	-0.37
COc1ccc(NC(=O)c2coc3ccccc23)cc1OC	-6.2%	i	-0.03
Cc1oc2c(CN3CCOCC3)c(O)ccc2c(=O)c1-c1ccccc1	1.6%	i	1.14
Cc1cc(C)cc(NC(=O)C2CCCN(c3nc(C)cc(C)n3)C2)c1 (stereo unspecified)	3.8%	i	-0.58
COc1cccc(C2CC(=O)N3CN(c4cccc(Cl)c4C)CSC3=C2C#N)c1OC (stereo unspecified)	0.4%	i	1.42

An excerpt from above in order of count of non-hydrogen atoms, highest first:
SMILES	Hsc70 ATP site	MT1-MMP reporter	WNV protease inh
CCn1c(C(=O)N2CCCC(C(=O)NCCCc3ccccc3)C2)cc2sccc21 (stereo unspecified)	-1.8%	i	-0.37
Cc1oc2c(CN3CCOCC3)c(O)ccc2c(=O)c1-c1ccccc1	1.6%	i	1.14
Cc1cc(C)cc(NC(=O)C2CCCN(c3nc(C)cc(C)n3)C2)c1 (stereo unspecified)	3.8%	i	-0.58
